GIRK2 activ = activators of human GIRK2 potassium channels; 63,000 tested, 0.05% active; AID 1259325; calls only for hits at 25 µM; HEK293-GIRK2 thallium flux, Thallos fluorescence; P48051;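 active = among the strongest 0.2% of first-round signals and kept after retests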;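 note: first round at about 10 µM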
Target sequence (P48051 whole entry, looked up): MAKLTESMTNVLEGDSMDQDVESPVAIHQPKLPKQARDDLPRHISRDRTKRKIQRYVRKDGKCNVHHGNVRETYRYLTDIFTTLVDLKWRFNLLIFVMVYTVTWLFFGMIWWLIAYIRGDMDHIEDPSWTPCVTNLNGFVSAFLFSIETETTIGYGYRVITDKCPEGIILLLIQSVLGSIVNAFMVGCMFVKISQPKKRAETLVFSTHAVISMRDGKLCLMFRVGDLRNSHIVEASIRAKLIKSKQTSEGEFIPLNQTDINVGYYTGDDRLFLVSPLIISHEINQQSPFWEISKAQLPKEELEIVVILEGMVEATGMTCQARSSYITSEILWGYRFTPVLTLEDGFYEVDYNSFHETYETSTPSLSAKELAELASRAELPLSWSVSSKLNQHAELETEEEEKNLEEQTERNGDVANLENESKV
Calls only; i = inactive. A portion of the library. The share of hits here may be higher or lower than overall.

SMILES	GIRK2 activ
COc1ccc(NC(=O)c2nnn(Cc3ccc(Br)cc3)c2N)cc1OC	i
CCOC(=O)CNC(=O)c1cc2c(=O)n(C)c(=O)n(C)c2n1CCCOC	i
C=CCn1c(=O)c2c(nc3n(CC=C)c(-c4ccccc4)cn23)n(C)c1=O	i
Cc1cccc(N2CCCn3c2nc2c3c(=O)[nH]c(=O)n2C)c1C	i
CCCN(CCS(C)(=O)=O)Cc1ccc(-c2ccc3ncnc(Nc4ccc(OCc5cccc(F)c5)c(Cl)c4)c3c2)o1	i
COc1nn(C)cc1C(=O)Nc1ccc(C(=O)NCc2ccccn2)cc1	i
CC(O)(CNC(=O)c1ccc(Cl)s1)c1ccco1 (centres undefined)	i
COCCc1nnc(NC(=O)C2(c3ccc(Cl)cc3)CCCC2)o1	i
COc1ccc(OC)c(-c2cc(C(=O)NCC3COC4(CCCCC4)O3)n(C)n2)c1 (centres undefined)	i
O=C(CSCc1ccccc1)N1CCC(CSCc2ccco2)CC1	i
OC(COCC1CC2CCC1C2)CN1CCN(Cc2ccccc2)CC1 (centres undefined)	i
CC(CCc1ccccc1)NC(=O)c1ccc(Cn2c(=S)[nH]c3cc4c(cc3c2=O)OCO4)cc1 (centres undefined)	i
CN1CCN(c2ccc(-c3ccc(NC(=O)Nc4ccc(F)cc4)cc3)nn2)CC1	i
O=S(=O)(c1cccc(-c2nnc(SC/C=C/c3ccccc3)o2)c1)N1CCOCC1	i
O=C(NCc1cccc2ccccc12)Nc1ccc2c(c1)CCCN2C(=O)c1cccs1	i
CC(C)C(=O)Nc1ccc(S(=O)(=O)NCC2CCN(c3cnccn3)CC2)cc1	i
O=C(c1cc2ccccc2o1)N1CCN(CC(O)c2cccs2)CC1 (centres undefined)	i
COc1ccc(OCC(=O)Nc2ccc(S(=O)(=O)N3CCN(c4cnccn4)CC3)cc2)cc1	i
O=C(COc1ccc2ccccc2c1)Nc1ccc(N2CCCCS2(=O)=O)cc1	i
O=C(Cn1nc2c(c1NC(=O)c1ccc(C(F)(F)F)cc1)CSC2)NCc1ccco1	i

Seven entries drawn at random from those above:
SMILES	GIRK2 activ
O=C(Cn1nc2c(c1NC(=O)c1ccc(C(F)(F)F)cc1)CSC2)NCc1ccco1	i
OC(COCC1CC2CCC1C2)CN1CCN(Cc2ccccc2)CC1 (centres undefined)	i
COCCc1nnc(NC(=O)C2(c3ccc(Cl)cc3)CCCC2)o1	i
Cc1cccc(N2CCCn3c2nc2c3c(=O)[nH]c(=O)n2C)c1C	i
COc1ccc(OCC(=O)Nc2ccc(S(=O)(=O)N3CCN(c4cnccn4)CC3)cc2)cc1	i
CCOC(=O)CNC(=O)c1cc2c(=O)n(C)c(=O)n(C)c2n1CCCOC	i
COc1ccc(NC(=O)c2nnn(Cc3ccc(Br)cc3)c2N)cc1OC	i

(listing goes on)
SMILES	GIRK2 activ
O=C(NCC(F)(F)F)c1nnn(-c2ccc(NS(=O)(=O)c3cccc(F)c3)cc2)n1	i
O=C(Cn1nc2c(c1NC(=O)CSc1ccncc1)CSC2)NCc1ccco1	i
COCCCNC(=O)c1ccc(=O)n(Cc2cccc(F)c2)n1	i
Cc1cccc(C)c1N1CC(c2nc3ccccc3[nH]2)CC1=O (centres undefined)	i
O=S(=O)(c1cccc2cccnc12)N1CCCCCC1	i
COC(=O)C1=C(C)NC(=O)NC1c1ccc(OC(F)F)c(OC)c1 (centres undefined)	i
Cc1ccc(Sc2c(C)nn(C(C)(C)C)c2OC(=O)C23CC4CC(CC(C4)C2)C3)cc1	i
CCc1ccc(S(=O)(=O)N2CCC(CSCc3ccco3)CC2)s1	i
CCNC(=O)Cn1cnc2c1c(=O)[nH]c(=O)n2C	i
O=C(NC1CC(=O)N(c2ccccc2)C1)c1ccc(C(F)(F)F)cc1 (centres undefined)	i
O=C(c1cncc(Br)c1)N1CCN(CCn2ccnc2)CC1	i
Cc1ccc(N2CC(C(=O)Nc3onc4c3CSC4)CC2=O)cc1 (centres undefined)	i
O=C(CSC1=NNC2C3CC(c4ccccc4)NN3C=CN12)NCc1ccccc1Cl (centres undefined)	i
CC(=O)NC1C(=O)N(CCCOc2cccc3ccccc23)c2c(C)cccc21 (centres undefined)	i
COc1cccc(-c2c(NC(=O)C(C)C)n(C)c3ccccc3c2=O)c1	i
Cn1c(=O)c2[nH]c(SCC(=O)c3ccc(Cl)s3)nc2n(C)c1=O	i
CCCCn1c(=O)c2c(nc3n2CCCN3c2ccc(OC)c(Cl)c2)n(C)c1=O	i
O=C(COc1ccccc1)NCC1(c2cccs2)CCOCC1	i
COc1ccc(-c2noc(C3=NN(Cc4ccccc4)C(=O)CC3)n2)cc1	i
O=C(NCC1CCN(C(=O)Oc2ccccc2)CC1)c1ccc(Cl)c(Cl)c1	i

Grouped by structure, the compounds so far with bromine.
SMILES	GIRK2 activ
COc1ccc(NC(=O)c2nnn(Cc3ccc(Br)cc3)c2N)cc1OC	i
O=C(c1cncc(Br)c1)N1CCN(CCn2ccnc2)CC1	i

Next entries.
SMILES	GIRK2 activ
COc1ccc(S(=O)(=O)Nc2ccccc2C(=O)N2CCN(c3ccccc3)CC2)cc1	i
COc1ccc(-n2c(=O)[nH]c3cc(C(=O)NCCc4ccccc4)ccc3c2=O)cc1OC	i
COc1ccccc1CCNC(=O)c1cn(C)nc1C	i
COc1ccc(S(=O)(=O)NCCCc2ccc(N(C)C)cc2)cc1Cl	i
O=C(NCCOc1ccc2c(c1)OCO2)c1ccco1	i
COc1ccc(F)cc1S(=O)(=O)NCC(c1cccs1)N1CCc2ccccc2C1 (centres undefined)	i
Cc1cccc(-c2c(NC(=O)c3cccs3)oc3c(C)cccc3c2=O)c1	i
CC(C)(C)NC[C@H](O)COc1nsnc1N1CCOCC1	i
Cc1cc(C)c(S(=O)(=O)NCCC(=O)O)cc1N(C)S(=O)(=O)c1ccc(F)cc1	i
COc1ccc2c(C)c(-c3ccc(Br)cc3)c(=O)oc2c1	i
COCCn1c(=O)c2c(nc3n(-c4ccc(C)cc4)c(C)cn23)n(C)c1=O	i
Cc1cc(=O)n(CCNC(=O)COc2cccc3ccccc23)cn1	i
CC(C)NC(=O)CSc1nnc(N2CCN(C(=O)C3CCCC3)CC2)s1	i
Cc1cc(NC(=O)C2CCN(S(=O)(=O)CCN3C(=O)CCCC3=O)CC2)no1	i
COc1cccc2sc(OC3CN(S(=O)(=O)c4cccc(C(C)=O)c4)C3)nc12	i
CC(=O)C(C)n1c(N2CCCCC2)nc2c1c(=O)n(C)c(=O)n2C (centres undefined)	i
COc1ccc(S(=O)(=O)N(CCc2cccs2)Cc2ccoc2)cc1Cl	i
Cc1cc(N2CCN(S(C)(=O)=O)CC2)ncn1	i
Cc1ccc(N2CCC(C(=O)NCc3csc(-c4ccccc4)n3)CC2)nn1	i
O=C1NC(=NCCCc2ccccc2)S/C1=C\c1ccc2ncccc2c1	i

2 of these compounds, reformatted:
GIRK2 activ | Molecule
i | COc1ccccc1CCNC(=O)c1cn(C)nc1C
i | COCCn1c(=O)c2c(nc3n(-c4ccc(C)cc4)c(C)cn23)n(C)c1=O

Going on with the list.
SMILES	GIRK2 activ
COc1ccc(-c2c(-c3ccc(OCCN4CCCCC4)cc3O)n[nH]c2C)cc1OC	i
CCn1c(-c2ccc(OC)cc2)c[nH]c1=S	i
O=C(c1cncc(Br)c1)N1CCN(Cc2ccsc2)CC1	i
CC(C)(C)C(O)CCNC(=O)c1cccc(C#N)c1 (centres undefined)	i
Cc1ccc(-c2noc(C3CCN(CC(=O)NCc4ccccc4)CC3)n2)cc1	i
COC(=O)c1cc(Nc2ccc(OC)cc2OC)c2cccc(F)c2n1	i
O=c1ccn(-c2ccc(Cl)cc2)nc1-c1nc(-c2ccc(C(F)(F)F)cc2)no1	i
C=CCOCC(O)Cn1c(N2CCCCCC2)nc2c1c(=O)n(C)c(=O)n2C (centres undefined)	i
OCc1ccc(-c2ccc(-c3ccc(CO)s3)o2)s1	i
CCc1ccccc1-n1c(C)c(C)n2c3c(=O)n(CCN4CCOCC4)c(=O)n(C)c3nc12	i
COc1ccc(NC(=O)NCCNc2ccc(C)nn2)c(OC)c1	i
Cc1ccc(NC(=O)C(=O)NC2CCCCCC2)cc1Cl	i
O=C(Nc1cc(-c2ccco2)nn1-c1nc(-c2ccccc2)cc(=O)[nH]1)c1cc(-c2ccccc2)on1	i
Cc1ccc(S(=O)(=O)Nc2cnc(N3CCN(c4ccccc4)CC3)nc2)c(C)c1	i
CCOc1ccc(-c2noc(CSc3nc4cc5c(cc4c(=O)n3CC)OCO5)n2)cc1	i
Cc1ccc(S(=O)(=O)N(C)CC(=O)n2nc(C)cc2C)cc1	i
O=C(Oc1ccc2c(c1)O/C(=C\c1cccnc1)C2=O)c1cccc([N+](=O)[O-])c1	i
CCOCCn1c(-n2nc(C)c(C)c2C)nc2c1c(=O)[nH]c(=O)n2C	i
O=C(NCC1CCN(C(=O)c2ccoc2)CC1)C(=O)NCC(F)(F)F	i
COc1ccc(S(=O)(=O)NCCC(=O)NCc2cccnc2)cc1N(C)S(=O)(=O)c1ccccc1	i

Some of the entries above, reformatted.
molecule | GIRK2 activ
COC(=O)c1cc(Nc2ccc(OC)cc2OC)c2cccc(F)c2n1 | i
O=c1ccn(-c2ccc(Cl)cc2)nc1-c1nc(-c2ccc(C(F)(F)F)cc2)no1 | i

The listing continues.
SMILES	GIRK2 activ
CC(C)S(=O)(=O)c1ccc(CC(=O)N(CCc2cccs2)C2CC2)cc1	i
O=C(O)COc1ccc2c(c1)O/C(=C\c1ccccc1Br)C2=O	i
O=C(Cn1nc(-c2nc(-c3cccc(F)c3)no2)ccc1=O)NCc1ccccc1	i
CC(C)C(=O)Nc1ccc([N+](=O)[O-])c(C(F)(F)F)c1	i
COc1nn(C)cc1C(=O)NCCn1nc(-c2cccs2)n(C2CC2)c1=O	i
O=C(CSc1nnc2scc(-c3ccccc3)n12)c1ccc2c(c1)OCO2	i
COC(=O)CN1CCN(c2nc3c(c(=O)[nH]c(=O)n3C)n2Cc2ccc(Br)cc2)CC1	i
COc1ccccc1C1(CNC(=O)C(=O)Nc2ccc(N3CCCS3(=O)=O)cc2)CCOCC1	i
CCc1ccc(NC(=O)Cn2c(=O)n(CCCCC(=O)NCCC(C)C)c(=O)c3ccccc32)cc1	i
Cc1c(C)n2c3c(=O)[nH]c(=O)n(C)c3nc2n1CCN1CC(C)CC(C)C1 (centres undefined)	i
COc1ccc2cc(CCC(C)=O)ccc2c1	i
CSc1ccccc1NC(=O)C(C)n1nc(-c2cccs2)ccc1=O (centres undefined)	i
COCc1nnc(NC(=O)COc2ccc(C(C)(C)C)cc2)s1	i
Cc1cc(C(=O)N2CCN(c3nnc(SCC(=O)Nc4ccccc4)s3)CC2)c(C)o1	i
N[C@@H]1CONC1=O	i
CN(C)CC1COCCN1C(=O)c1ccc(F)cc1Cl (centres undefined)	i
O=C(Nc1c(C(=O)c2ccc3c(c2)OCCO3)oc2ccccc12)c1ccco1	i
COc1ccccc1C(=O)NC1CC(=O)N(c2ccc(C)c(C)c2)C1 (centres undefined)	i
CC(C)N(CC#CCNC(=O)c1cccc(C#N)c1)C(C)C	i
COc1ccccc1-c1ccc(N2CCCC(C(=O)Nc3ccccc3-c3ccc(=O)[nH]n3)C2)nn1 (centres undefined)	i
CSc1cccc2sc(N(CCN(C)C)C(=O)c3ccc(N(C)C)cc3)nc12	i
O=S(=O)(c1cccc(F)c1)N1CCC(Cc2ccccc2)CC1	i
COc1ccc(CC(C)(O)CNC(=O)C(C)(C)C)cc1 (centres undefined)	i
COc1ccccc1-c1ccc(N2CCN(S(=O)(=O)c3cccs3)CC2)nn1	i
Cc1cn2c3c(=O)n(CC(N)=O)c(=O)n(C)c3nc2n1-c1ccc(Oc2ccccc2)cc1	i
CC1(C)OCC2(CO1)CN(C(=O)CCC(=O)c1ccccc1)C2	i
O=C(CSc1ncccn1)Nc1ncc(Cc2cccc([N+](=O)[O-])c2)s1	i
COc1ccc(F)cc1S(=O)(=O)N1CC(Oc2nc3c(OC)cccc3s2)C1	i
CCCNC(=O)C1CCCN(c2nc3c(-c4ccccc4C)csc3c(=O)[nH]2)C1 (centres undefined)	i
Cc1ccc(-n2nnc3c(=O)n(CC(=O)N4CCCc5ccccc54)cnc32)cc1C	i
Fc1ccc(-c2c(-c3ccncc3)nc3n2CCS3)cc1	i
CC(=O)OCC(=O)[C@@]1(O)CC[C@H]2[C@@H]3C[C@H](C)C4=CC(=O)C=C[C@]4(C)[C@H]3[C@@H](O)C[C@@]21C	i
CNC(=O)C1CCC(Cn2c(=O)c3sccc3n(CC(=O)NC3CCCC3)c2=O)CC1 (centres undefined)	i
COc1ccc(C2CC3C4NN=C(SCC(=O)Nc5ccccc5OC)N4C=CN3N2)cc1 (centres undefined)	i
CS(=O)(=O)N1CCc2nc(NC(=O)/C=C/c3cccs3)sc2C1	i
CCCS(=O)(=O)N1CCc2ccc(NC(=O)Cn3c(=O)oc4ccccc43)cc2C1	i
CC(=O)c1ccc(NC(=O)Cn2nc3ccc(-c4ccccc4)nn3c2=O)cc1	i
CN(C)c1nc2c(c(=O)[nH]c(=O)n2C)n1CCCOc1ccccc1	i
Cc1cc(NC(=O)c2cn(-c3ccc(C#N)cc3)cn2)ccc1Br	i
N#C/C(=C\Nc1ccccc1C(=O)O)c1nc2ccccc2s1	i
CC(C)(Oc1ccc(Cl)cc1)C(=O)N1CC(c2nc(-c3cccs3)no2)C1	i
COC(=O)c1ccc2c(=O)n(CCCC(=O)NC(C)c3ccccc3)c(=S)[nH]c2c1 (centres undefined)	i
O=c1ccc(-c2ccccc2)nn1Cc1nc(-c2ccc(Br)cc2)no1	i
CCOc1ccc(-c2ccc(=O)n(Cc3nc(-c4ccc(Br)cc4)no3)n2)cc1	i
COCCn1c(=NC(=O)CCS(=O)(=O)Cc2ccccc2)sc2c(C)cc(C)cc21	i
O=C(Cn1nc2c(Oc3ccccc3)nccn2c1=O)Nc1ccc2c(c1)OCO2	i
Cn1nc(C(=O)Nc2ccc(F)c(F)c2)ccc1=O	i
O=C(Nc1c(F)cccc1F)N1CCC(Cn2cnc3ccccc32)CC1	i
CCOc1ccc(Br)cc1S(=O)(=O)NCCn1ncccc1=O	i
O=C(C1=C(O)C(=O)N(CCN2CCOCC2)C1c1ccccn1)c1cc2ccccc2o1 (centres undefined)	i

Compound activity (PubChem)
